# Assay outcomes deposited in PubChem by several laboratories.
# HNF4A DNA FP – change in binding of human HNF4 alpha to DNA | HNF4a-FITC DNA binding, fluorescence polarization, 1 h | activity change, % at 10 µM | 360,000 tested, 0.3% active; in the data active means activity change above about 30%, passing the limit was not always enough;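 further: controls were the assay level and a saturating level of protein; the project sought stronger binding though the title names inhibitors; some compounds called inactive have numbers as strong as hits; positive values seem to mean higher polarization but the record does not say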
# UCH37 inh – human UCH37 deubiquitinating enzyme inhibition; Q9Y5K5; purified proteasome/UCH37, Ub-AMC cleavage fluorescence; inhibition, % (no concentration beside the values); 330,000 tested, 0.33% active;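 active means mean of two replicates above 20%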;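 further: 0% = compound-free wells with enzyme and 100% = wells lacking proteasome; stock transfer was 100 nL into about 20 µL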
# Target sequence (Q9Y5K5 whole entry, looked up): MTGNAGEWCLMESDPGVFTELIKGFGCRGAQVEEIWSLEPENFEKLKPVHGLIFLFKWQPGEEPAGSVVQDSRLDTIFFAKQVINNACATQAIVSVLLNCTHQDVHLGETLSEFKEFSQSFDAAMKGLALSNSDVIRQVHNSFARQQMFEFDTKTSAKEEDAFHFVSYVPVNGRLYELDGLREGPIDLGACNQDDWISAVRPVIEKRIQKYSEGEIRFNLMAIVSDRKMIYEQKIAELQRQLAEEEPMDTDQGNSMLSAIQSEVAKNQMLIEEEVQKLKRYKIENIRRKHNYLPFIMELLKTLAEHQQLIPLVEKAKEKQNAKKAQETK
#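 Material: human UCH37 enzyme supplied as purified proteasome complex. Measure: % inhibition of Ub-AMC cleavage fluorescence. Medium: pH 7.4 Tris-HCl (50 mM) with ovalbumin, ATP-MgCl2, DTT. Times: 30 min preincubation with enzyme, 25 min cleavage at room temperature. Detection: AMC fluorescence intensity at 355/460 nm.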
# Vif TR-FRET – inhibitors of Vif binding to APOBEC3G peptide, primary screen, biochemical, TR-FRET, GST-Vif 1-94, biotin-A3G peptide, dose response retest (AID 1117319); 260,000 tested, 0.57% active; TR-FRET GST-Vif / biotin-A3G peptide binding; higher % means a stronger effect; test concentration not given here; strong numbers were not always called active; inhibition, %, or IC50 in µM where a hit was titrated;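 active means above the screen mean plus three standard deviations and confirmed in dose response; inconclusive means results disagree or hit not tested in dose response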;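 further: Vif residues 1-94 fused to GST binding biotinylated APOBEC3G peptide 110-148; 0% = full assay without inhibitor and 100% = GST in place of GST-Vif; retest series ran down from 100 µM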
# LANA-H2B inh – blocks KSHV LANA binding to histone H2A/H2B. Q9QR71. 320,000 tested, 0.6% active. inhibition, % (concentration not given with the values). AID 2629. cell-free LANA-H2A/H2B peptide, fluorescence polarization; in the data active means inhibition mostly above about 10%, no sharp cut-off; inactive means mostly below about 6.7%;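 further: stock transfer was 7.5 nL into about 10 µL; 0% = median of vehicle wells and 100% = median of positive control wells; one replicate is shown; the record names a cut of 25% in any replicate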
# Beta2AR agonist – activates human beta-2 adrenergic receptor causing internalization | AID 504454 | 340,000 tested, 0.43% active | response, % (no concentration beside the values) | P07550 | Am2.2-beta2AR cells, FAP receptor internalization, flow cytometry; reference of the scale not given here;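 active means response above a set limit, near 3 SD of response in nonfluorescent compounds, cut at about 42% in these data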;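 further: stock transfer was 100 nL into about 11 µL; a reference agonist was the positive control; negative values mostly stem from fluorescent compounds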
# Target sequence (P07550 whole entry, looked up): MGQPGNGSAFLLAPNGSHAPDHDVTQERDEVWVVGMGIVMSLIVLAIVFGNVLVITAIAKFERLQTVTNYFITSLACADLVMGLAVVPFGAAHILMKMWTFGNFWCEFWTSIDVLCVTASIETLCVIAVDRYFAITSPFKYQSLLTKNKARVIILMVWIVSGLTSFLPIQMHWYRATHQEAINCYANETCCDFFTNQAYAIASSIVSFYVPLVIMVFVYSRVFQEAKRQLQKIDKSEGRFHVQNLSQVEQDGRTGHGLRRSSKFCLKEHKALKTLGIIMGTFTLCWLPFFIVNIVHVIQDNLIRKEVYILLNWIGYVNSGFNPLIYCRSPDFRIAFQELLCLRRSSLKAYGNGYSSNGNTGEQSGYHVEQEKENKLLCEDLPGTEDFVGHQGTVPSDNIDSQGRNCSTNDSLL
# A1 inh – inhibitors of the anti-apoptotic protein A1, read as caspase activation; MEF A1-2A-BIM cells, Caspase-Glo 3/7 luminescence, 3 h; percent of clofoctol response, vehicle zero; caspase activation, % (no concentration beside the values); 330,000 tested, 0.066% active; AID 2462;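 active means over half of replicate activation scores above 10%, or exactly half above 10 with the replicate mean above 10; inconclusive means replicate mean below 10 yet half the replicates above 10; inactive means over half of replicates below 10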;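 further: wells of about 30 µL received 50 nL stock; many hits fall short of the cut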
# Ecoli growth – E. coli growth inhibition; Escherichia coli growth, OD600, 23 h; active compounds read low; OD600 absorbance (test concentration not listed); 330,000 tested, 0.21% active; AID 1053175;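 active means OD600 absorbance below the run mean of sample wells minus 3.6 SD, in any replicate, cut at about 0.56 in these data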;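 further: stock transfer was 300 nL into about 60 µL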
# * hit, by the source's call; ? = inconclusive; nt = not tested or not shown; & = joins results of further samples.
SMILES,HNF4A DNA FP,UCH37 inh,Vif TR-FRET,LANA-H2B inh,Beta2AR agonist,A1 inh,Ecoli growth
CC(C)C(C(=O)Nc1sc2c(c1C#N)CCCCC2)N1C(=O)c2ccccc2C1=O (stereo not drawn),2.9,2.4,?,-1.3,3,-1.0,0.79
CCCCN1CC(=O)N2[C@H](c3ccc(OC)cc3)[C@@H]3C(=O)N(CC)C(=O)[C@@H]3[C@]2(Cc2ccccc2)C1=O,2.7,-1.2,nt,-0.3,-6,-1.5,nt
CCOC(=O)C1(CCOc2ccccc2)CCN(Cc2ccc(OCCO)cc2)CC1,0.3,2.0,-4%,-46,3,-7.1,0.66
COCCn1c(SCC(=O)Nc2ccc(C(C)=O)cc2)nc2c([nH]c3ccccc32)c1=O,0.0,nt,nt,5.4,-21,0.6,nt
CC1CCCc2sc3ncn(N)c(=N)c3c21 (stereo not drawn),2.0,1.9,nt,-0.9,-16,-0.4,0.7
O=C(Nc1ccccc1)c1ccc(Br)c(S(=O)(=O)Nc2cccnc2)c1,-1.8,4.3,nt,-0.2,-2,-3.0,0.65
CCc1ccccc1N/N=C(/C)c1c(O)cc(C)oc1=O,2.7,nt,7%,3.6,1,0.0,nt
Cc1ncc([N+](=O)[O-])n1CCOC(=O)NC(Nc1ccc(F)cc1)C(Cl)(Cl)Cl (stereo not drawn),-1.1,1.9,15%,-0.6,1,0.7,0.68
CCOC(=O)CNC(=O)Cn1cnc2c(nnn2-c2cccc(Cl)c2)c1=O,-0.3,5.0,7%,-2.6,-3,-0.7,0.71
CCOC(=O)/C=C/C(=O)Nc1ccc(S(=O)(=O)N2CCCCCC2)cc1,6.2,0.5,nt,nt,2,-0.2,0.72
O=C(Cc1nnc(NC(=O)Nc2ccc(F)cc2)s1)Nc1ccccc1,-2.1,3.0,0%,-1.5,-3,0.3,0.73
O=C(NC1CC1)C1=C[C@H](c2ccc(C(F)(F)F)cc2)C[C@H](OCc2ccc(CO)cc2)O1,-1.1,3.8,-2%,1.5,-8,-2.3,nt
Cc1c(Cl)cccc1-n1c(SCC(=O)N(C)Cc2ccccc2)nnc1-c1ccncc1,3.4,6.4,15%,1.7,-1,0.7,0.71
COc1ccc(C)cc1S(=O)(=O)NCC(c1cccnc1)N1CCc2ccccc2C1 (stereo not drawn),-1.2,2.0,nt,3.9,2,0.3,0.63
O=C(CN(Cc1ccc(F)cc1)C(=O)CCC(=O)Nc1ccccn1)NCc1ccco1,-1.9,2.3,4%,4.0,-5,0.2,0.72
COc1cc(/C=C(/C#N)c2ccc(F)cc2)ccc1OCc1ccc(C(=O)O)o1,-1.3,2.4,6%&19%,-0.1,-6,0.0,0.67
CC(C)CC(=O)c1c[nH]c(C(=O)NCc2ccccc2)c1,1.1,4.4,5%,1.1,-5,6.3*,0.71
O=C(COC(=O)CNC(=O)c1ccccc1)Nc1cccc(Br)c1,-0.7,5.4,nt,2.0,2,0.7,0.66
O=C(CCC(=O)Nc1nnc(C2CCCCC2)s1)NCc1ccccc1,-5.3,52,1%,-0.8,0,0.0,0.61
CC(=O)Nc1ccc(NC(=O)C(C)Sc2nc3nc(C)cc(C)n3n2)cc1 (stereo not drawn),1.6,0.7,-1%,-0.4,8,-0.5,0.67
CCOC(=O)CCCCC(=O)c1[nH]c(=O)[nH]c1CSc1nc(C)cc(=O)[nH]1,0.1,5.4,-48%,1.5,-4,1.2,0.68
COc1ccc(/C(O)=C2/C(=O)C(=O)N(CCCN(C)C)C2c2cccc(Cl)c2)cc1OC (stereo not drawn),-1.9,5.5,nt,0.1,2,0.2,0.74
Cc1ccc(Nc2cc(C(=O)NCCCN3CCOCC3)c3ccccc3n2)c(C)c1,-2.2,6.0,0%,1.2,4,0.8,0.69
O=S(=O)(/C=C/c1ccccc1)c1ccccc1,2.1,0.8,-7%,-0.6,2,0.8,0.69
O=C(Nc1ccncc1)c1cc(S(=O)(=O)N2CCOCC2)ccc1Cl,1.9,1.5,-2%,0.5,0,-0.4,0.69
CC(=O)Nc1ccc(SCC(=O)NC(=O)c2ccc(S(=O)(=O)N(C)C)cc2)cc1,1.6,3.6,nt,-3.8,18,-0.4,0.69
Cc1cc(C)c2nc(N(CCCN(C)C)C(=O)c3ccc4c(c3)CCCC4)sc2c1,nt,1.8,nt,-7.4,nt,-1.4,0.63
CCOC(=O)/C(=N\Nc1ccccc1)S(=O)(=O)c1ccccc1,1.2,nt,-3%,-1.9,-3,-0.7,nt
COc1ccc(CCNC(=O)c2cc(-c3ccccn3)nc3c(Cl)cccc23)cc1OC,0.8,2.5,16%,0.6,8,-0.6,0.72
Cc1cc(C)nc(Sc2ncnc3sc4c(c23)CCC4)n1,1.0,-257,-7%,1.5,-17,0.9,0.71
Cc1nn(CC(=O)N2CCCc3ccccc32)c(C)c1[N+](=O)[O-],2.0,3.2,-1%,5.2,9,0.2,0.72
Cc1ccc(C)c(S(=O)(=O)N2CCN(C(=O)Cc3ccc(S(=O)(=O)N4CCOCC4)s3)CC2)c1,0.3,1.0,30%,-3.1,7,0.7,0.66
CC(C)(C)NC(=O)NC(=O)COC(=O)c1ccc(OC(F)F)cc1,3.0,1.7,-4%,1.4,-2,0.9,0.66
COc1ccc(-c2nc(CS(=O)(=O)CC(=O)Nc3ccc(Cl)cc3)c(C)o2)cc1,4.0,2.7,-5%,2.8,8,-0.5,0.65
O=C(NO)c1ccc(OC(F)F)cc1,0.4,nt,8%,5.7,0,0.0,nt
COc1ccc(C(=O)CSc2nnc3n2CCCN3C(=O)Nc2ccccc2)cc1,-1.7,3.7,65%,-1.7,-4,2.6,0.63
O=C(Nc1ccc2c(c1)OCO2)c1cc(-c2cccc(O)c2)on1,-1.0,0.7,nt,-1.7,7,-1.5,0.72
COC(=O)C1CCN(C(=O)COc2ccc(N(C)S(=O)(=O)c3ccc(C)cc3)cc2)CC1,-4.8,1.9,-2%,-2.5,16,0.7,0.63
CCN(CC)C(=O)Cc1cc(C(=O)O)c2ccccc2n1,-3.7,-1.5,?,2.1,3,1.0,0.72
Cc1ccsc1C1C(C#N)=C(N)OC2=C1C(=O)CC(C)(C)C2 (stereo not drawn),-3.6,2.6,nt,-2.1,0,-0.3,0.69
CCOc1cc(NC(=S)NCCc2ccccc2)c(OCC)cc1NC(C)=O,-2.2,0.3,-8%,3.7,-5,0.4,0.66
COC(=O)c1cc2c(ccn2-c2ccc(F)cc2)n1Cc1ccc(OC)cc1,2.6,-0.2,nt,2.4,-8,0.0,0.72
CCc1nc2ccccc2c(=O)n1/N=C/c1ccc(Cl)cc1,0.8,nt,nt,4.9,-6,0.5,nt
O=C(N/N=C/c1cccnc1)c1cc(-c2ccc(Cl)cc2)nc2ccccc12,-1.7,nt,nt,-4.3,-14,0.8,nt
CC1(NC(=O)/C=C/c2nc3ccccc3s2)CCS(=O)(=O)C1 (stereo not drawn),-8.1,-7.5,13%,2.8,-17,2.4,0.65
COc1ccccc1CC(=O)NNS(=O)(=O)c1ccc([N+](=O)[O-])cc1,0.7,0.9,nt,-2.4,5,0.3,0.72
O=C(NCC(c1ccco1)N1CCN(c2ccccc2F)CC1)c1cccs1 (stereo not drawn),-0.5,-2.3,4%,-1.8,-2,0.3,0.65
C/C(Cn1cnc([N+](=O)[O-])n1)=N\NC(=O)c1cccnc1,4.2,nt,-4%,-4.3,-1,-1.5,nt
CC(=O)Nc1ccc(NC(=O)CC23CC4CC(CC(C4)C2)C3)cc1,2.7,4.2,nt,3.4,7,2.7,0.68
C=CCNCCCCOc1cccc(Br)c1,0.6,2.0,6%,5.3,5,-0.1,0.67
# Next part
SMILES,HNF4A DNA FP,UCH37 inh,Vif TR-FRET,LANA-H2B inh,Beta2AR agonist,A1 inh,Ecoli growth
c1ccc(-c2ccncn2)cc1,-0.5,2.6,-4%,nt,-1,nt,0.72
COc1ccc(/C(O)=C2/C(=O)C(=O)N(CCN(C)C)C2c2ccc(OC)c(OC)c2)c(C)c1 (stereo not drawn),-1.4,3.7,6%,-0.2,7,-0.2,nt
CCC[C@@H]1C[C@@H](C(=O)N[C@@H](C2O[C@H](SC)[C@H](O)[C@@H](O)[C@H]2O)[C@H](C)Cl)N(C)C1 (stereo partly drawn),1.9,3.6,nt,-4.6,nt,0.0,nt
O=C(COC(=O)c1ccccc1NCCO)NCC1CCCCC1,1.6,-304,nt,-0.1,-7,-0.1,0.68
Oc1ccccc1N1CCN(C(=S)Nc2ccc(SC(F)F)cc2)CC1,2.2,3.6,4%,23*,18,-0.8,0.68
Cc1cc(C)cc(NC(=O)Nc2cc(S(=O)(=O)N(C)C)ccc2C)c1,0.9,3.8,-12%,0.3,4,-0.7,0.67
Cc1cc(C)c2c(c1)-c1c(ssc1=S)C(C)(C)N2C(=O)CN1C(=O)c2ccccc2C1=O,-0.2,7.0,nt,-4.2,19,0.5,0.73
Cc1ccc(-c2nnn(CC(=O)N(c3ccccc3)C(C(=O)NC3CCCC3)c3ccco3)n2)o1 (stereo not drawn),2.3,2.1,-5%&-2%,5.9,1,1.0,0.66
Brc1ccc(-n2cc(-c3ccccc3)c3c(NN4CCOCC4)ncnc32)cc1,1.6,0.9,15%,3.0,-5,0.9,0.7
Cc1cc(C(=O)NC2CCN(Cc3ccccc3)CC2)n[nH]1,1.1,3.2,nt,1.2,1,-1.4,0.69

# Reprinted at random: 2 records from the list, in no set order.
SMILES,HNF4A DNA FP,UCH37 inh,Vif TR-FRET,LANA-H2B inh,Beta2AR agonist,A1 inh,Ecoli growth
c1ccc(-c2ccncn2)cc1,-0.5,2.6,-4%,nt,-1,nt,0.72
Cc1ccc(-c2nnn(CC(=O)N(c3ccccc3)C(C(=O)NC3CCCC3)c3ccco3)n2)o1 (stereo not drawn),2.3,2.1,-5%&-2%,5.9,1,1.0,0.66

# Other results follow:
SMILES,HNF4A DNA FP,UCH37 inh,Vif TR-FRET,LANA-H2B inh,Beta2AR agonist,A1 inh,Ecoli growth
CN(Cc1cccc([N+](=O)[O-])c1)Cc1cccc2ccccc12,0.6,5.2,nt,-2.4,2,0.5,0.68
CCOc1ccc(CCNC(=O)Cn2cccc2C(=O)c2ccccc2)cc1OCC,0.8,0.5,-3%,1.7,-1,-0.1,0.67
COc1ccc2oc(C(=O)NCCC(C)C)c(C)c2c1,-1.4,-8.3,-1%,-3.9,5,-2.0,0.7
CC(C)Nc1nc2c(c(=O)n(C)c(=O)n2C)n1C,1.9,1.8,-8%,-0.7,-1,0.2,0.65
C=CCNCCOCCSc1ccc(Cl)cc1,0.2,-1.1,10%,5.1,-4,2.2,0.62
Cc1ccccc1NC(=S)N(C)C1(c2ccccc2Cl)CCCCC1=O (stereo not drawn),-3.3,-0.5,0%,-0.6,3,-0.3,0.71
Cc1n[nH]c(=O)nc1N1CCN(c2ccccc2)CC1,-1.3,2.5,4%,-2.1,-1,-2.1,0.74
CCOC(=O)c1ccc(NC(=O)c2ccc(CN3CCOCC3)cc2)cc1,0.1,3.1,16%,1.4,12,1.1,0.73
O=C(CSc1cccc[n+]1[O-])NC(=O)c1ccc(OC(F)F)cc1,0.0,0.6,-7%,-3.7,-3,-1.9,0.65
Cn1nnnc1SCc1ccc(C(=O)Nc2ccc(Br)cc2)cc1,-0.4,0.2,-4%,2.3,1,-0.2,0.71
Cn1c(=O)[nH]c(=O)c2c1nc(Br)n2CC(O)c1ccccc1 (stereo not drawn),2.7,2.7,24%,-1.2,-2,-0.2,0.75
CCOc1ccc(-n2c(Cc3cc(=O)[nH]c(=O)[nH]3)nnc2SC(C)C)cc1,-0.3,3.4,-4%,-3.6,6,-0.7,0.7
CC(C)CC1C(C#N)=C(N)Oc2n[nH]c(-c3cccs3)c21 (stereo not drawn),-0.6,7.0,?,4.9,-2,0.9,0.7
O=C(O)CCCCCCCCCC[n+]1ccccc1,-3.8,0.8,nt,-2.0,-7,-0.2,0.69
